Screening results deposited in PubChem by National Center for Advancing Translational Sciences (NCATS).
ClpP mod = qHTS Assay for Activators of ClpP; ATP-dependent Clp protease proteolytic subunit (Bacillus subtilis (strain 168)), P80244; purified B. subtilis ClpP, FRET peptide cleavage, 20 min; Potency, µM (doses to about 57.5 µM), inactives show top-dose activity change, negative = active; actives 1.9% (n = 340,000); active = well fitted falling curve with a large enough effect; inconclusive = small, poorly fitted or top-dose-only effect; inactive = no such curve, though single readings can be large or run the other way; further: the source files actives as falling curves though it sought activators and does not explain the sign; nearly all actives have a fitted effect of over 65% in size; many hits overshoot -100%
Target sequence (P80244 whole entry, looked up): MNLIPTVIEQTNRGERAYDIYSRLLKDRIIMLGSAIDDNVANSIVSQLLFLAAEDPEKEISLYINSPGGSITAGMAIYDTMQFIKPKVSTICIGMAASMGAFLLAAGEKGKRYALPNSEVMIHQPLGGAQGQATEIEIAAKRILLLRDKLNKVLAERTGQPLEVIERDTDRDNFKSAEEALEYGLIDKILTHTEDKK
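Buffer: 100 mM Tris/HCl pH8, 100 mM KCl, 0.05% low protease BSA, 2.5% glycerol, 0.01% Tween-20. ClpP 10 microg/mL final; 20 min RT; delta FRET normalized to ADEP and DMSO controls.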
Active calls of the source: *; ? = inconclusive. Potency means the concentration at half of the fitted maximal effect. Some of the compounds tested; rates above refer to the full screens.

compound	ClpP mod
Cc1ccc(C(CC(=O)Nc2ccc(F)c(Cl)c2)N2Cc3ccccc3C2=O)cc1 (centres undefined)	-2.0%
Cc1cc(C)cc(NC(=O)C(=O)NC(C)c2ccccc2)c1 (centres undefined)	1.9%
O=C(Cc1ccccc1F)N1CCC(c2nc3c(nnn3Cc3cccc(Cl)c3)c(=O)[nH]2)CC1	-1.4%
O=C(Nc1ccc(F)cc1)c1ccc(CN2CC(=O)N3CCCCC3C2=O)cc1 (centres undefined)	-1.0%
Cc1cccc(OCC(=O)Nc2ccc3c(c2)N(C)C(=O)c2ccccc2S3)c1	0.2%
COc1ccc(NC(=O)Cn2c(=O)n(C(C)C)c(=O)c3oc4ccccc4c32)cc1Cl	-2.7%
CC(=O)Nc1ccc(NC(=O)C(c2ccccc2)N2Cc3ccccc3C2=O)cc1 (centres undefined)	0.1%
C[C@@H]1[C@H](c2ccccc2)OCCS(=O)(=O)N1Cc1ccccc1Br	-4.5%
CN(C)C(=O)COC(=O)c1ccccc1OCC(=O)Nc1ccc(Br)cc1	-1.9%
O=C(c1ccc(F)cc1F)N1CCC(c2nc(-c3ccc(S(=O)(=O)N4CCCC4)cc3)no2)CC1	0.6%
CN(C)c1ccc(CNC(=O)Cc2ccc(NC(=O)N3CCCCc4ccccc43)cc2)cc1	0.8%
CCOC(=O)c1c(NC(=O)/C=C/c2ccc(OC)cc2)sc2c1CCC(C)C2 (centres undefined)	-2.9%
CC(=O)c1ccc(N2CCN(C(=O)c3cc4c(s3)-c3ccccc3OC4)CC2)cc1	-27%
Cc1cc2nn(-c3ccc(F)cc3)nc2cc1NC(=O)c1cccc2c(Cl)cccc12	?
CC1=C(C(=O)Nc2cccnc2)C(c2ccc(C)cc2)n2nc(SCc3ccccc3F)nc2N1 (centres undefined)	0.1%
CCN(CC)c1ccc(NC(=O)c2cc(CN3CCCC3)on2)c(C)c1	-0.2%
Cc1ccc2nc(-c3ccccc3F)c(Nc3ccc(Cl)cc3)n2c1	4.3%
COC(=O)c1c(NC(=O)c2c(OC)cccc2OC)sc2c1CCCC2	?
Nc1cc(N)cc(N)c1	-5.9%
Cc1sc2ncn(CC(=O)N3CCN(c4ccccc4F)CC3)c(=O)c2c1S(=O)(=O)N1CCC(C)CC1	-1.6%
CCOc1ccc(S(=O)(=O)N(C(C)=O)c2ccc3oc(C)c(C(=O)OC)c3c2)cc1	0.9%
CC(C)c1ccc(CNc2nc(-c3ccco3)nn2S(=O)(=O)c2ccc3ccccc3c2)cc1	-4.5%
CCc1ccc(NC(=O)c2ccc(CNS(=O)(=O)c3ccc4c(c3)C(C)(C)C(=O)N4C)cc2)cc1	13%
CC(=O)c1cccc(NC(=O)c2cccn2-c2nnc(N3CCCCC3)s2)c1	0.4%
O=C1Nc2ccccc2-n2nnnc2C1N1CCN(c2ccc(F)cc2)CC1 (centres undefined)	-0.7%
FC(F)(F)c1cc(-c2ccccc2)nc2cc(-c3ccc(Br)cc3)nn12	-5.6%
CC(=O)Nc1ccc(Nc2ncnc3c2cnn3C)cc1	-1.6%
COc1ccccc1NC(=O)C(Cc1ccccc1)NS(=O)(=O)c1ccc2c(c1)CCN2C(C)=O (centres undefined)	-1.2%
CCn1ccc2cc(S(=O)(=O)N3CCC(C(=O)NCCc4ccccc4Cl)CC3)ccc21	-12%
O=C(CNC(=O)C(c1ccccc1)c1ccccc1)OCC(=O)c1ccc2ccccc2c1	6.1%
CCOC(=O)Cn1c(=O)n(-c2ccccc2OC)c2nc(-c3cccc(F)c3)nc(C(N)=O)c21	-30%
N#C/C(=C\c1ccc(-c2ccc(Br)cc2)o1)C(=O)Nc1ccccc1O	-0.1%
CCCc1cc(=O)oc2cc(C)c3c(-c4cccc(OC)c4)coc3c12	-8.8%
Cc1ccccc1NC(=O)CSc1nc2ccc(NC(=O)c3ccco3)cc2s1	?
CCN1CCN(c2c(S(=O)(=O)c3ccccc3)cnc3ccc(Cl)cc23)CC1	-7.6%
COC(=O)c1ccc2nc(-c3cccc(Br)c3)c(Cc3ccccc3)n2c1	?
Cc1nn(Cc2ccc(Cl)c(Cl)c2)c(C)c1NC(=O)c1noc2c1CCc1ccccc1-2	-5.9%
Cc1ccc2c(c1)C(=O)OC(C(=O)Nc1ncc(Cc3ccccc3Cl)s1)C2 (centres undefined)	1.7%
Cc1ccc2oc3c(c(=O)c2c1)C1(C(=O)N(C)c2ccccc21)N(CCCO)C3=O (centres undefined)	-1.1%
Cc1ccc(NC(=O)c2ccc3snnc3c2)cc1Cl	1.7%
CCOc1ccc(NC(=O)c2ccc(NC(=O)CCS(=O)(=O)c3cccs3)cc2)cc1	-7.6%
Clc1ccc(-n2ncc3c(NC4CCCC4)ncnc32)cc1	?
COC(=O)C(Cc1c[nH]c2ccccc12)NC(=O)COc1cccc(C)c1 (centres undefined)	0.0%
Cc1ccccc1NS(=O)(=O)c1ccc2[nH]cc(C(=O)N3CCCC3)c(=O)c2c1	-22%
COc1ccc(Cl)cc1NC(=O)CSc1nccn1Cc1ccco1	0.7%

Next part, overlapping the part above by 3 compounds.
compound	ClpP mod
COC(=O)C(Cc1c[nH]c2ccccc12)NC(=O)COc1cccc(C)c1 (centres undefined)	0.0%
Cc1ccccc1NS(=O)(=O)c1ccc2[nH]cc(C(=O)N3CCCC3)c(=O)c2c1	-22%
COc1ccc(Cl)cc1NC(=O)CSc1nccn1Cc1ccco1	0.7%
CC(=O)Nc1ccc(NC(=O)c2cnn(-c3ccccc3)c2C2CCN(C(=O)OC(C)(C)C)CC2)cc1	-1.1%
CC(=O)N1Cc2cc(C(=O)NCc3cccc(F)c3)nc(-c3cccc(C4=CCCC4)c3)c2[C@H]1CCO	-3.6%
c1ccc(Cn2c(Cn3c(-c4cnccn4)nc4ccccc43)nc3ccccc32)cc1	-27%
O=C(Nc1ccc(F)cc1F)c1cc2ccc3cccnc3c2[nH]1	-4.4%
COC(=O)c1cc2oc3ccccc3c2n1CC(=O)Nc1ccc(C)cc1C	-9.8%
O=C(O)c1ccc2c(c1)N(Cc1ccc(F)cc1Cl)C(=O)c1ccccc1S2	2.3%
Cc1noc(Cn2c(=O)c3cc4c(cc3n(CC(=O)Nc3ccccc3F)c2=O)OCO4)n1	30%
COc1cccc(S(=O)(=O)Nc2ccc3c(c2)C(=O)N(C)C[C@H](OC)[C@H](C)CN[C@@H](C)CO3)c1	-0.4%
CC1CCCCN1c1nc(-c2ccc(C(C)(C)C)cc2)nc2ccccc12 (centres undefined)	?
COc1ccc(C2c3c(oc4cc(C)cc(C)c4c3=O)C(=O)N2Cc2ccco2)cc1OC (centres undefined)	1.1%
Cc1ccc2c(c1)cc1c(=O)n(CC(=O)N3CCCCC3)nc(C)n12	?
COC(=O)[C@]12CCCCC=C1N(CCc1ccc(OC)c(OC)c1)C(=O)[C@H](CC(=O)NCCCN1CCCC1=O)C2	-1.3%
CCn1c(=N)n(CC(O)COc2ccccc2)c2ccccc21 (centres undefined)	-0.3%
COc1ccccc1CNC(=O)CCCCn1c(=O)c2ccccc2n(Cc2c(C)cc(C)cc2C)c1=O	-1.2%
Cc1cc(F)ccc1NC(=O)CN(C)S(=O)(=O)c1ccc(C(=O)N2CCOCC2)s1	-1.4%

2 entries from above, as labelled records.
O=C(CNC(=O)C(c1ccccc1)c1ccccc1)OCC(=O)c1ccc2ccccc2c1
- ClpP mod = 6.1%

CCN1CCN(c2c(S(=O)(=O)c3ccccc3)cnc3ccc(Cl)cc23)CC1
- ClpP mod = -7.6%

The list continues:
compound	ClpP mod
COc1cccc(NC(=O)CSCc2cc(=O)c3ccc(C)c(C)c3[nH]2)c1	-1.8%
Cc1ccc(-c2cn3cccnc3n2)cc1NC(=O)Nc1ccc(F)cc1	-20%
CCCOc1ccc(C2C(=O)N(C3CCCCC3)CC(=O)N2CCC2=CCCCC2)cc1OC (centres undefined)	-0.5%
Cc1ccc(OCCn2c(CNc3ccccc3C)nc3ccccc32)cc1	-3.2%
O=C(Cc1ccc(NC(=O)N2CCCCc3ccccc32)cc1)NCc1ccccc1	-1.4%
Cc1ccc(CNC(=O)Cn2ccn(-c3ccc(F)c(F)c3)c(=O)c2=O)cc1	5.0%
CC(C)(C)C1CCc2c(sc(NC(=O)c3ccco3)c2C(=O)Nc2ccccc2Cl)C1 (centres undefined)	-4.1%
CCCN(CCC)C(=O)c1nn(C)c2c1CSc1ccc(C)cc1-2	1.4%
CC(C)(C)C1CCc2c(sc(NC(=O)c3ccccc3F)c2C(=O)NCc2ccco2)C1 (centres undefined)	-5.4%
COc1ccccc1Nc1cc(C)nc2nc(-c3ccccc3)nn12	-2.3%
COc1ccc(OC)c(NC(=O)c2cn3c4c(ccc(Cl)c4c2=O)OC(C)C3)c1 (centres undefined)	-4.0%
Cn1c(C(=O)NCCc2ccccc2)cc2sc(Cl)cc21	-2.4%
COc1ccc(NC(=O)c2c(NCc3cccs3)sc3c2CCCC3)c(OC)c1	1.1%
O=C(c1cc2ccc3cccnc3c2[nH]1)N1CCN(c2cccc(C(F)(F)F)c2)CC1	-4.3%
Cc1nc2c(c(C)nn2-c2ccccc2)c(C)c1CCC(=O)Nc1ccc(F)cc1	5.2%

Structures from the list above containing a CF3 group:
compound	ClpP mod
FC(F)(F)c1cc(-c2ccccc2)nc2cc(-c3ccc(Br)cc3)nn12	-5.6%
O=C(c1cc2ccc3cccnc3c2[nH]1)N1CCN(c2cccc(C(F)(F)F)c2)CC1	-4.3%

(listing goes on)
compound	ClpP mod
Cc1cc(=O)n(Cc2ccc(F)cc2Cl)c2c1c(C)nn2-c1ccccc1	-4.1%
CCOc1ccc(NC(=O)CCc2c(C)nn(-c3ccc(N4CCCC4)nn3)c2C)cc1	-2.8%
CCOc1ccc(/C=C/c2nc(C#N)c(NC(C)CC)o2)cc1 (centres undefined)	4.5%
O=C(OCc1cccc(C(F)(F)F)c1)c1ccc(-c2nnn(Cc3ccc(F)cc3)n2)cc1	-1.4%
CC(NC(=O)Cn1c(=O)oc2cc(S(=O)(=O)N3CCCCCC3)ccc21)c1ccccc1 (centres undefined)	-0.9%
CCOc1ccc(CNC(=O)c2cnc3sc(N4CCOCC4)nn3c2=O)cc1OC	28µM*
O=C(CC1NCCNC1=O)Nc1ccc(F)c(Cl)c1 (centres undefined)	0.8%
CCOc1ccc(C2c3c(-c4cc(C)ccc4O)n[nH]c3C(=O)N2Cc2cccnc2)cc1OCC (centres undefined)	0.6%
Cc1ccc(-n2ncc3c(N4CCCCCC4)ncnc32)cc1	?
Cc1cccc(CN2C(=O)c3ccccc3Sc3ccc(C(=O)N4CCCC4)cc32)c1	-1.9%
COc1ccccc1-c1cc(C(=O)Nc2cc(Cl)ccc2O)no1	0.5%
Cc1ccc(-n2ncc3c(NC4CCCCC4)ncnc32)cc1Cl	-11%
COc1cccc(N2C(=O)CSC23C(=O)N(Cc2ccccc2)c2ccccc23)c1 (centres undefined)	0.2%
CCc1ccc(CN(C(=O)c2ccc(OC)cc2)C2CCS(=O)(=O)C2)cc1 (centres undefined)	-2.0%
CN(C)c1ccc(CNC(=O)c2ccc(Cn3c(SCc4ccccc4)nc4cccnc43)cc2)cc1	-20%
Fc1cccc(CSc2ccc(-c3cccs3)nn2)c1	-13%
COc1cc(/C=C(\C#N)c2nc3ccc(C)cc3[nH]2)ccc1OC(C)C	4.5%
COc1ccc(CNC(=O)CSc2ncc3c(n2)-c2cc(Cl)ccc2N(Cc2ccccc2)S3(=O)=O)cc1OC	31%
Cc1cc(C)c(NC(=O)c2oc3c(c2C)-c2[nH]ncc2CC3)c(C)c1	-23%
O=C(NCc1ccco1)c1ccc2c(c1)N(Cc1ccccc1)C(=O)c1ccccc1S2	-3.2%
Cc1cc(-c2ccc(S(=O)(=O)Nc3cccc(Cl)c3C)cc2)on1	2.8%
CCCCC[C@@H]1CCCCC[C@H](O)C[C@H](O)[C@@H](O)/C=C/C(=O)O1	-3.2%
CC(=O)c1cccc(NC(=O)CCn2nc(C)c(S(=O)(=O)N(C)C)c2C)c1	0.5%
COC(=O)C(C(=O)OC)c1ncccc1NS(=O)(=O)c1ccc(C)cc1	2.0%
COC(=O)c1sccc1S(=O)(=O)N1CCN(c2cccc(C)c2C)CC1	-3.4%
COc1ccccc1CNC(=O)CSc1ncc2c(n1)-c1cc(Cl)ccc1N(Cc1ccccc1)S2(=O)=O	-24%
CC(C)C[C@H]1CN(CCCC[C@@H]2CNC(=O)C(=O)N2Cc2ccccc2)C(=O)C(=O)N1CC1CCCCC1	0.1%
COc1ccc(CCNS(=O)(=O)c2cc(-c3onc(C)c3C)ccc2OC)cc1OC	-0.1%
CSc1ccc(CCNC(=O)c2ccc3c(c2)nc2n3CCC(C)C2)cc1 (centres undefined)	0.6%
COC(=O)c1ccccc1NC(=O)c1cnc(Nc2ccc(OC)cc2)c2ccccc12	-18%
O=C(CSc1nc(-c2ccccc2)[nH]c1-c1ccc(F)cc1)NC1CCCC1	?
COc1ccc(NC(=O)Cn2c(=O)n(Cc3ccco3)c(=O)c3cc(OC)c(OC)cc32)cc1	-6.9%
